PABP FP inh: PABP poly(A) RNA binding inhibitors, primary screen, biochemical, fluorescence polarization, uHTS; actives 1% (n = 290,000); AID 2014, 2009; Polyadenylate-binding protein 1 (Homo sapiens), P11940; inhibition, % at 35 µM;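 active = 50% or more with normal probe brightness, or confirmed in later tests; about a fifth of its hits are not listed in these tables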;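 note: calls also rest on retests at 20 µM and on dose response follow-up; controls were probe without protein and protein plus probe with vehicle; some compounds called inactive have numbers as strong as hits; many hits fall short of the cut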
Target sequence (P11940 whole entry, looked up): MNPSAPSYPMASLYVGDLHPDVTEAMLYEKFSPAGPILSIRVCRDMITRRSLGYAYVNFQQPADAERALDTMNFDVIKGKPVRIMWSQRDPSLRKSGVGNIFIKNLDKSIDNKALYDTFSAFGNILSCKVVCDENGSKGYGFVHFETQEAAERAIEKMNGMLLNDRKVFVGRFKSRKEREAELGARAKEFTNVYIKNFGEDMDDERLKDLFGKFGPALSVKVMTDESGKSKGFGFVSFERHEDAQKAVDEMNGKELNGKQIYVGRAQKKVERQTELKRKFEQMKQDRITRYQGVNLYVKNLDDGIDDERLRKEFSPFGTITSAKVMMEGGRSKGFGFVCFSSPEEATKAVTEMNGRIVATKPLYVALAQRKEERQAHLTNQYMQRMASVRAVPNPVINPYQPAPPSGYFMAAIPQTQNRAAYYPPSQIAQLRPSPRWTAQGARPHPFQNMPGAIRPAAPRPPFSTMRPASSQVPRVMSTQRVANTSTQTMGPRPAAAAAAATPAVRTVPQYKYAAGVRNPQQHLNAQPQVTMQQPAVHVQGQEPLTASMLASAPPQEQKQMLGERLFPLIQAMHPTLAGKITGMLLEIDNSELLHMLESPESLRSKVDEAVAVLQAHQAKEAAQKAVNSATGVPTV
Yeast UUG start: modulators of yeast start codon fidelity, primary screen, whole organism, S. cerevisiae, single point, plate reader. activity score, % at 18.7 µM. AID 602363, 2012. S. cerevisiae UUG-firefly luciferase reporter, luminescence/redox ratio. actives 0.13% (n = 350,000);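 active = replicate mean at a twofold rise or more, about +100% in these data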;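 note: firefly luciferase made from a UUG start codon reports start codon fidelity; reporter light over untreated wells divided by growth signal over untreated wells; some hits fall short of that in this replicate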
CSC inhib: cancer stem cell viability inhibitors, primary screen, luminescence | actives 1.1% (n = 300,000) | cancer stem cell-like cells viability | AID 2717, 2010 | inhibition, % at 7.5 µM;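 active = mean at 75% or more and at least half the replicates too; tested in HMLE shEcad cells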;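 note: 0% = median of negative and 100% = median of positive control wells; the first replicate is given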
MT1-MMP act inh: blockers of MT1-MMP proenzyme processing, primary screen, HT1080 RFP-PRO-GFP cells, GFP/RFP fluorescence. Matrix metalloproteinase-14 (Homo sapiens), P50281. GFP/RFP ratio fluorescence, overnight; percent of plate control window, DMSO zero. GFP/RFP ratio change, % at 20 µM. actives 0.061% (n = 360,000). AID 651647, 2012;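 active = GFP/RFP ratio change of at least 30% with cell ATP level not reduced by more than half and red fluorescence within 50% of control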; note: strong numbers were not always called active
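Test system: HT1080 cells expressing an RFP-PRO-GFP fluorescent reporter construct / Compound dosing: single-point 20 µM compound, 1% DMSO / Schedule: cells overnight before dosing, compound overnight, 37 °C, 5% CO2 / Evaluation: GFP/RFP fluorescence ratio / Control set: DMSO and RFP-L50D-GFP cell wells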
eIF4H inh: human eIF4H binding inhibitors, primary screen, translation initiation inhibitor project, biochemical, uHTS, fluorescence polarization; inhibition, % at 35 µM; eIF4H fluorescence polarization binding assay; actives 0.94% (n = 290,000); AID 2012, 2009;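 active = 50% or more with normal probe brightness, or confirmed in later tests; about a fifth of its hits are not listed in these tables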;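 note: calls also rest on retests at 20 µM and on dose response follow-up; 0% = protein and probe with vehicle and 100% = probe without protein; strong numbers were not always called active; many hits fall short of the cut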
Env fusion inh: inhibitors of HIV-1 Env-driven cell-cell fusion, primary screen, HeLa-JRFL effector, CEM21 target cells, luciferase. actives 1.1% (n = 360,000). inhibition, % at 12.3 µM;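 active = mean replicate inhibition score of at least 50 and every replicate individually at or above 50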;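 note: 0% = plate neutral controls and 100% = maraviroc near 300 nM; one replicate is shown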
Rce1 inhib: yeast Rce1p protease inhibitors, primary screen, biochemical, fluorescence, cell-free homogeneous. yeast membranes, quenched prenylated peptide cleavage fluorescence. actives 0.27% (n = 290,000). calls only. CAAX prenyl protease 2 (Saccharomyces cerevisiae (strain ATCC 204508 / S288c)), Q03530;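 active = fall in fluorescence gain of 50% or more versus controls, with final raw signal at or below 3038400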;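 note: plate controls were neutral control wells for no effect and wells lacking membranes for full effect; tested at 10 µM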
Target sequence (Q03530 whole entry, looked up): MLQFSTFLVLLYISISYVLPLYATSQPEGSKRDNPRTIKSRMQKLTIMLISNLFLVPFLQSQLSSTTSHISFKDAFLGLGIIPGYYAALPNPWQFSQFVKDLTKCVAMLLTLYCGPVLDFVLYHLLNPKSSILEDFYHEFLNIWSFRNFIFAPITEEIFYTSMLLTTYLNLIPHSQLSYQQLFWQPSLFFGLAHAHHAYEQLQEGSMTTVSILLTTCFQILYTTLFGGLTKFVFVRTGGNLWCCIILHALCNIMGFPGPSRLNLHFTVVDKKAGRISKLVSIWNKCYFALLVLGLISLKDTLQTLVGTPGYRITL
eIF4H inh retest: recorded beside eIF4H inh, whose call it bears; inhibition, %; compound at 20 µM; confirmation average;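 mean of two retest wells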
PABP FP inh retest: further read-out of PABP FP inh, marked with its call; inhibition, %; compound at 20 µM; confirmation repeats;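 mean of two retest wells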
MT1-MMP act inh RFP: further read-out of MT1-MMP act inh, marked with its call; RFP signal change, %; measured here: RFP expression control read;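 0 = vehicle wells; hits needed this value within 50% of zero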
An asterisk follows results filed as active; i = inactive; . = no result given; & = joins results of further samples.

SMILES	PABP FP inh	Yeast UUG start	CSC inhib	MT1-MMP act inh	MT1-MMP act inh RFP	eIF4H inh	Env fusion inh	Rce1 inhib	others
CN(C)S(=O)(=O)c1ccc(C(=O)Oc2ccccc2)cc1	-5	-3	-4	4	4	-6	.	i
CN1CCN(CCc2nc3cc(NC(=O)COc4ccc(Cl)cc4)ccc3n2C)CC1	3	-15	7	2	2	-2	3	i
COc1cccc(N2C(=O)C(Cc3c[nH]c4ccccc34)NC2=S)c1 (stereo not given)	3	.	0	-5	0	9	10	i
COc1ccc([C@H]2C[C@H](n3cc(COC(=O)c4ccccc4)nn3)[C@@H](O)CN2C(=O)c2cccs2)cc1	.	-10	.	-3	1	.	-3	.
NC(=O)N/N=C\c1cc(Br)ccc1O	-10	.	.	4	4	9	.	i
O=C(Nc1cccc(Cl)c1)Nc1cnccn1	-3	9	-1	-8	-3	-4	-83	i
Cn1ccc2c(-c3cccc4ccccc34)cc3c(c21)C1CCC3C1 (stereo not given)	.	1	.	1	3	.	6	.
C=C(C)Cn1c(C2CC(=O)N(Cc3ccccc3)C2)nc2ccccc21 (stereo not given)	2	-5	-3	-2	-1	-2	12	i
CN(C)c1ccc(CNC(=O)CN(C)S(=O)(=O)c2ccc3c(c2)c(=O)n(C)c(=O)n3C)cc1	8	-13	-5	2	1	9	6	i
O=C1CCN(S(=O)(=O)c2ccccc2)CCN1CCOCc1cccc(F)c1	0	-6	-10	-2	-1	-7	-12	i
CCc1c(C)sc(NC(=O)c2ccco2)c1C(=O)N1CCCCC1	21	7	1	-6	5	32	11	i
COc1ccc(NC(=O)Cn2nc(C(=O)O)c3ccccc3c2=O)cc1OC	11	-19	-9	4	5	-12	4	i
CCc1ccc(NC(=O)C(C)OC(=O)/C=C/c2ccc(O)c(OC)c2)cc1 (stereo not given)	.	4	3	8	-4	.	-11	.
O=C(Nc1nnc(S(=O)(=O)N2CCCC2)s1)c1ccccc1Br	6	-15	-6	.	.	-4	-2	i
O=C(CN1CCCC1)Nc1ccc(OC(F)(F)F)cc1	-2	-27	-7	-2	1	13	5	i
Cc1nc(-c2cccc(NC(=O)c3cccc(S(=O)(=O)N4CCCC4)c3)c2)cs1	.	21	-11	18	-8	.	3	.
CCN1C(=O)[C@@H]2[C@@H](c3ccc(-c4ccc(Cl)c(Cl)c4)cc3)N3CCC[C@@]3(C(=O)OC)[C@@H]2C1=O	.	-11	38	7	-3	.	34	.
O=C(O)c1ccc(Cl)c(S(=O)(=O)Nc2ccccc2Cc2ccccc2)c1	25	-15	19	-4	-2	-2	-6	i
CN(C)NC(=S)NC(=O)C12CC3CC(CC(C3)C1)C2	2	-23	11	1	3	2	-22	i
CCc1ccccc1NC(=O)CN1CCN(C(=O)CNC(=O)c2ccccc2F)CC1	.	-14	9	6	-3	.	.	.
COc1ccc(CCNC(=O)c2cc3c(cc2Cl)N2CCCCCC2=NS3(=O)=O)cc1	.	4	-1	-3	2	.	-15	i
CCOc1ccc(C2c3[nH]c4ccccc4c3CCN2Cc2cccn2-c2ncccn2)cc1 (stereo not given)	23	2	29	-6	-3	38	18	i
COc1ccc2[nH]c(=O)c(CN(Cc3cccs3)C(=S)Nc3cccc(C)c3)cc2c1	6	.	13	-32	-32	4	-2	i
CCn1cc(CN2CCN(C)C(CCO)C2)c2ccccc21 (stereo not given)	2	-11	-9	0	-4	-2	10	i
CC1CCCCN1CCCNC(=O)c1ccc2nc(N3CCCCC3)sc2c1 (stereo not given)	-10	-8	0	2	3	0	-74	i
CC(C)N(C(=S)Nc1cccc(C(F)(F)F)c1)C(C)c1ccccn1 (stereo not given)	4	.	9	4	2	2	4	i
CCOC(=O)C1=C(C)NC(=O)NC1c1cc(C)sc1C (stereo not given)	-6	12	3	0	2	-9	.	i
O=c1[nH]c(SCc2ccc(F)cc2)nc2c1cnn2-c1ccc(F)cc1	12	-12	5	5	3	2	37	i
C/C(=N\OC(=O)Nc1ccc(Cl)cc1)c1ccc(F)c(F)c1	10	-11	11	0	-1	-7	3	i
COc1ccc(CC(=O)Oc2ccccc2Cl)cc1S(=O)(=O)N1CCOCC1	.	-5	6	-2	5	.	3	i
O=c1ccnc(SCn2nnc3ccccc3c2=O)[nH]1	1	.	8	1	0	1	.	i
COc1ccccc1-c1cnc(C(O)c2ccc(F)c(F)c2)[nH]1 (stereo not given)	.	-10	.	4	3	.	-8	.
O=C(NCc1ccco1)C1CCCN1C(=O)Nc1ccccc1Cl (stereo not given)	-1	.	5	-3	6	-1	-9	i
O=C(Nc1ccn(CCCN(CCCn2ccc(NC(=O)OCc3ccccc3)nc2=O)CCc2cc3ccccc3[nH]2)c(=O)n1)OCc1ccccc1	.	-13	.	7	-6	.	15	.
CCOC(=O)C1CCN(Cc2nc3ccccc3c(=O)n2-c2ccc(F)cc2)CC1	8	-11	11	1	3	1	-64	i
Cc1nc(NC(=O)c2ccccc2)sc1-c1csc(NCc2ccco2)n1	8	-16	.	-22	5	3	.	i
COc1ccc([N+](=O)[O-])cc1N(CC(=O)NC1CCCC1)S(C)(=O)=O	-10	.	-24	-1	3	-8	11	i
Nc1ccc(Cc2ccc(N)c(O)c2)cc1O	8	.	.	7	7	94	9	.	eIF4H inh retest=16;PABP FP inh retest=28
CC(=O)Nc1ccc(S(=O)(=O)NC(C)C(=O)NC(C)c2ccccc2)cc1 (stereo not given)	8	-17	3	3	5	0	10	i
O=C(Cc1ccccc1)Nc1c2c(nn1-c1cccc(Cl)c1)CS(=O)(=O)C2	-2	17	-13	3	2	-2	-19	i
O=C(NCc1cccnc1)Nc1cccc(NC(=O)NCc2cccnc2)c1F	5	-2	.	5	0	-1	-4	i
O=C(COC(=O)c1ccccc1)NCCC1=CCCCC1	-6	.	-4	0	2	5	4	i
Cn1c(=O)c2c(nc(SCc3ccccc3F)n2C)n(C)c1=O	9	-7	-7	4	1	-7	0	i
O=S(=O)(c1cccc(-c2nnc(-c3ccc(Br)cc3)o2)c1)N1CCCCCC1	-11	-16	-2	6	-6	-16	60*	i
COc1cc(NC(=O)CNc2cccc(S(=O)(=O)N3CCCC3)c2)cc(OC)c1	-6	-16	.	4	-11	-10	22	i
O=C(O)/C=C/C(=O)Nc1cccnc1	-11	.	-2	4	9	8	.	.
Cc1cc(C)n(CC(=O)n2nc(C)cc2C)n1	2	1	.	-3	1	-4	6	i
O=C(NCC(c1ccco1)N1CCc2ccccc2C1)C(=O)Nc1ccc(F)cc1F (stereo not given)	.	-9	-10	1	-3	.	7	i
NC(=O)CN1C(=O)/C(=c2\sc3nc(=O)c(Cc4ccccc4)nn3c2=O)c2ccccc21	0	-15	-2	-1	2	-8	14	i
Cc1cc(C)c2c(N)c(C(=O)NN)sc2n1	9	-10	-8	3	0	11	4	i
CCOc1ccc(/C=C/C(=O)N2CCOCC2)cc1OC	-1	-4	9	2	3	0	8	i
CN(C)c1nc(Nc2ccccc2)nc(Oc2ccc(=O)[nH]n2)n1	-3	.	-13	-2	-2	-2	-161	i
COC(=O)C1=C(C)NC(=O)CC1c1ccccc1 (stereo not given)	-1	-15	-1	3	0	0	.	.
CN(C)C(=O)Cn1c(SCC(=O)N2CCCc3ccccc32)nc2ccccc21	7	-12	-11	-3	5	-12	.	i
CC(C)NC(=O)CC1(C(=O)NCc2ccc(Cl)cc2)CCCC1	9	2	-10	-1	0	3	3	i
COc1ccc(N2CCN(C(=O)c3ccccc3N(C)S(=O)(=O)c3ccccc3)CC2)cc1	2	2	11	3	1	-10	-3	i
O=C(NCc1cccnc1)c1cc(C2CCCCN2C(=O)OCc2ccccc2)on1 (stereo not given)	.	-1	.	2	2	.	-18	.
Cc1ccsc1-c1nc(CSCC(=O)NCc2ccc3c(c2)OCO3)c(C)o1	-3	-10	28	6	5	-2	-30	i
O=C1CN(C(=O)COC(=O)Cc2ccsc2)c2ccccc2N1	-5	-4	13	4	4	-6	-42	.
CS(=O)(=O)c1ccc2nc(NC(=O)C3COc4ccccc4O3)sc2c1 (stereo not given)	-20	-12	-6	-2	-6	-8	.	i
Next part:
SMILES	PABP FP inh	Yeast UUG start	CSC inhib	MT1-MMP act inh	MT1-MMP act inh RFP	eIF4H inh	Env fusion inh	Rce1 inhib	others
Cc1ccc(S(=O)(=O)N(CC(=O)O)c2ccc(Cl)c(C(F)(F)F)c2)cc1	4	.	19	-1	2	24	4	i
O=C(NCCNC(=O)C1CC2CCC1C2)C1CC2CCC1C2 (stereo not given)	8	-18	-2	-2	2	-6	-93	i
O=C(O)C1CC=CCC1C(=O)Nc1ccccc1C(=O)N1CCN(c2ccc(F)cc2)CC1 (stereo not given)	0	-1	8	-5	0	4	-16	i
O=C1CSC(c2ccccc2)N1c1cccnc1 (stereo not given)	-10	-14	5	1	6	-10	5	i
COc1cc2ccccc2cc1C(=O)Nc1ccc(N2CCN(C)CC2)cc1	-10	-7	52	7	5	5	-151	i
O=[N+]([O-])c1ccccc1SNc1ccccc1	.	-27	.	7	2	.	-1	.
CC(=O)Nc1nn(C)c2nc3cc(C)ccc3cc12	-2	-5	-7	4	0	-2	.	i
CC(=O)c1cn(CC(=O)Nc2ccccc2C(F)(F)F)c2ccccc12	-1	-16	-15	4	-23	4	-2	i
O=C1CCCN1CC(CN1CCOCC1)Sc1nc2ccccc2c(=O)n1-c1ccccc1 (stereo not given)	13	9	.	11	-8	1	.	.
COc1ccc2c(c1)C(CC(=O)NN)CCC2 (stereo not given)	.	-14	.	5	-1	.	-11	.
CCOC(=O)c1nn(-c2ccc(Cl)cc2Cl)c(=N)c(C#N)c1C	8	.	-8	.	.	4	.	i
COc1ccc(CCNC(=O)Nc2ccccc2[N+](=O)[O-])cc1	4	.	-5	3	3	8	-27	i
COc1ccc(C(=O)NC2CCCCCCC2)cc1OC	.	3	6	-3	-2	.	-6	i
COc1cc(/C=C2/SC(=S)NC2=O)ccc1OS(=O)(=O)c1ccc(C)cc1	-7	.	102*	-11	-15	8	.	i
COc1ccc(C(=O)N2CCN(c3nc(C4CC4)nc4sc(C)c(C)c34)CC2)cc1	7	-7	14	-8	-11	-11	28	i

Arranged by SMILES length (highest first): part of the list above.
SMILES	PABP FP inh	Yeast UUG start	CSC inhib	MT1-MMP act inh	MT1-MMP act inh RFP	eIF4H inh	Env fusion inh	Rce1 inhib	others
O=C(O)C1CC=CCC1C(=O)Nc1ccccc1C(=O)N1CCN(c2ccc(F)cc2)CC1 (stereo not given)	0	-1	8	-5	0	4	-16	i
COc1ccc(C(=O)N2CCN(c3nc(C4CC4)nc4sc(C)c(C)c34)CC2)cc1	7	-7	14	-8	-11	-11	28	i
O=C(NCCNC(=O)C1CC2CCC1C2)C1CC2CCC1C2 (stereo not given)	8	-18	-2	-2	2	-6	-93	i

New compounds follow.
SMILES	PABP FP inh	Yeast UUG start	CSC inhib	MT1-MMP act inh	MT1-MMP act inh RFP	eIF4H inh	Env fusion inh	Rce1 inhib	others
CC(C)c1ccc(NC(=O)CCNC(=O)Cn2cnc3ccccc3c2=O)cc1	4	-7	1	4	6	-14	-6	i
CCc1c(C)c2ccc(OCC(=O)OC)cc2oc1=O	2	.	-3	8	5	-9	.	i
C[C@@H]1CN([C@H](C)CO)C(=O)c2cc(Br)cnc2O[C@H]1CN(C)C(=O)Nc1ccccc1F	.	-13&-2	.	0	1	.	13	.
CCCC/C(C)=N/NC(=O)C(=O)NCCc1ccccc1	-10	-7	-4	3	-2	-8	.	i

Compound activity from PubChem.
